Assay outcomes (PubChem)
rRNA inh HTS = reduced GFP signal of wild-type E. coli, primary screen, bacterial rRNA inhibitor project, GFP/RFP fluorescence, OD600, single point; AID 720706, 2013; GFP signal change (wild-type ribosome), % (concentration not given with the values); E. coli WT GFP vs humanized-ribosome RFP mutants, 24 h; active compounds read low; DMSO median 0, no signal -100; actives 1.6% (n = 350,000);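 active means significant combined selectivity score with lowered wild-type GFP, culture density cut under 30%, mutant RFP and density less affected; inactive means any of these conditions unmet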; further: one replicate is shown; some compounds called inactive have numbers as strong as hits
FGF22 binding = binders of human FGF22 protein, primary screen, FGF22 synaptogenesis inhibitor project, biophysical, thermal shift, single point; Fibroblast growth factor 22 (Homo sapiens), Q9HCT0; recombinant FGF22 thermal shift, SYPRO orange fluorescence; percent of sucrose octasulfate shift, DMSO zero; calls only at 9.99 µM; actives 1.5% (n = 340,000); AID 651658, 2012;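 active means melting point raised past a set limit in the mean and every replicate; three in four hits are not shown here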
Target sequence (Q9HCT0 whole entry, looked up): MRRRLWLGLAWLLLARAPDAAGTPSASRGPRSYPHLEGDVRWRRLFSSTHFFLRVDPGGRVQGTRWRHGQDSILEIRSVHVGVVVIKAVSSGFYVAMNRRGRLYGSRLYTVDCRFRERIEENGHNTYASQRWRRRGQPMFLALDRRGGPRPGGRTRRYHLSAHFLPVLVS
AF4-AF9 inh = inhibitors of AF4 peptide binding to AF9, primary screen, biochemical, AlphaScreen, biotin-AF4 peptide, FLAG-AF9, single point. inhibition, % at 10 µM. AID 651704, 2012. actives 0.47% (n = 350,000);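 active means every replicate reaching a set inhibition limit, whatever the replicate mean, cut at about 25% in these data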;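 further: 0% = plate neutral control median and 100% = total signal loss; the record names both 10 and 1 µM as test concentration; the first replicate is given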
Target sequence (P42568 whole entry, looked up): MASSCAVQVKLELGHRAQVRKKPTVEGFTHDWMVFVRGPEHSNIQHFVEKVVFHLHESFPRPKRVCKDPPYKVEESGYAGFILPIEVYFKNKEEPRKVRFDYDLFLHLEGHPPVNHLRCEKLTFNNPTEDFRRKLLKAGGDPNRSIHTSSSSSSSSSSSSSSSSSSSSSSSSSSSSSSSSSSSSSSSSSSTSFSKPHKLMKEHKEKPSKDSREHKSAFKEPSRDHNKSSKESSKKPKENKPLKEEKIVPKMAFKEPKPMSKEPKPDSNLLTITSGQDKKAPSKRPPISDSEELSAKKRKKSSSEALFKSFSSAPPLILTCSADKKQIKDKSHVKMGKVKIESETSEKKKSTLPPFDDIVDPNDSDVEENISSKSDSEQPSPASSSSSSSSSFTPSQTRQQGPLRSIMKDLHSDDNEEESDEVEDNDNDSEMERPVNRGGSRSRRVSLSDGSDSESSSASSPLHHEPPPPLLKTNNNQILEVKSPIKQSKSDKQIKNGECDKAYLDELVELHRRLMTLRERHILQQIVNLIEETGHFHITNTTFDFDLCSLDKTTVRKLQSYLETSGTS
rRNA inh HTS OD600 = also measured in rRNA inh HTS; calls as there; OD600 change, %; measured here: OD600 growth;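 optical density of the mix in the first replicate; 0 = DMSO median and -100 = no signal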
rRNA inh HTS RFP = also measured in rRNA inh HTS; calls as there; RFP signal change, %; measured here: RFP humanized mutant strains;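 first replicate; 0 = DMSO median and -100 = no signal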
The depositor's hits bear a star; i = inactive; & = joins results of further samples. An excerpt; count on the stated rates, not on these rows.

nr	structure	rRNA inh HTS	rRNA inh HTS OD600	rRNA inh HTS RFP	FGF22 binding	AF4-AF9 inh
1	C[C@@H]1CCCCO[C@H](CN(C)S(=O)(=O)c2cccs2)[C@@H](C)CN([C@H](C)CO)C(=O)c2cc(NC(=O)C3CCCCC3)ccc2O1	3&-2	-2&-7	-0.3&-0.3	i	-2.5&-1.3
2	CCc1nc2ccc(C(=O)N3CCN(S(=O)(=O)CC)CC3)cn2c1N(CCC(C)C)CCN(C)C	5	9	-1.0	i	-2.4
3	O=C(C[C@@H]1C[C@@H]2c3cc(NC(=O)c4ccc5c(c4)OCO5)ccc3O[C@@H]2[C@@H](CO)O1)NCc1ccc(Oc2ccccc2)cc1	-3	-7	5.0	i	2.0
4	CO[C@H]1CN(C)C(=O)c2cc(NS(=O)(=O)c3cn(C)cn3)ccc2OC[C@@H](C)N(Cc2cccc(F)c2)C[C@H]1C	2	0	-0.3	i	0.9
5	O=C(NCCc1cn2cccnc2n1)C1CCC(=O)N(Cc2ccccc2F)C1 (centres undefined)	24	16	4.4	i	-3.8
6	C/C=C/c1ccc2c(c1)O[C@@H](CN(C)C(=O)NCCC)[C@H](C)CN([C@@H](C)CO)S2(=O)=O	2	10	-3.5	i	-1.2
7	O=C(C[C@@H]1CC[C@H]2[C@@H](COC[C@H](O)CN2C(=O)C2CC2)O1)NCc1ccccc1Cl	4	16	7.8	i	-0.1
8	COc1cccc(Nc2nc(C(N)CO)cs2)n1 (centres undefined)	6	1	0.5	i	4.3
9	C[C@H]1CN([C@@H](C)CO)S(=O)(=O)c2ccc(C#CC3CCCCC3)cc2O[C@@H]1CN(C)C(=O)Cc1ccncc1	-16	-54	34	i	6.7
10	Cc1ccc(N2CC(O)CSC2=Nc2ccccc2)cc1 (centres undefined)	2	-1	0.3	i	-6.5
11	CCC(=O)N1CCC2(CC1)CN(S(=O)(=O)c1ccccc1)[C@@H](CO)c1[nH]c3cc(OC)ccc3c12	2	8	-0.6	i	-2.6
12	C[C@@H]1CCCCO[C@H](CN(C)C(=O)Nc2ccc(C(F)(F)F)cc2)[C@H](C)CN([C@H](C)CO)C(=O)c2cc(NS(=O)(=O)c3ccccc3)ccc2O1	-2	-3	1.0	i	0.7
13	C[C@@H]1CN([C@@H](C)CO)C(=O)c2cc(NC(=O)Cc3ccccc3)ccc2O[C@@H]1CN(C)CC1CC1	3	3	0.8	i	3.0
14	C[C@@H]1CN([C@H](C)CO)C(=O)Cc2cc(NC(=O)CCN3CCOCC3)ccc2O[C@H]1CN(C)S(=O)(=O)c1cccs1	2	8	-0.2	i	-8.3
15	C[C@@H]1CN([C@H](C)CO)C(=O)Cc2cc(NC(=O)CCN3CCOCC3)ccc2O[C@@H]1CN(C)S(=O)(=O)c1cccs1	2	10	0.6	i	-4.8
16	CCCN1C[C@H](C)[C@@H](OC)CN(C)C(=O)c2ccc(NS(=O)(=O)c3ccccc3)cc2OC[C@H]1C	0	0	-0.2	i	-3.7
17	CC(C)NC(=O)N(C)C[C@@H]1OCCCC[C@H](C)Oc2ccc(NC(=O)Nc3ccc(C(F)(F)F)cc3)cc2C(=O)N([C@@H](C)CO)C[C@@H]1C	2	7	-1.5	i	-1.2
18	COc1cccc(NC(=O)N2CC[C@@H]3[C@@H](CO)N(C)c4ccc(-c5ccccc5)cc4[C@@H]32)c1	-4	-7	15	i	4.6
19	CN1c2ccc(-c3ccccc3)cc2[C@@H]2[C@@H](CCN2C(=O)Nc2ccccc2F)[C@@H]1CO	-5	-31	8.0	i	4.1
20	C[C@@H]1CN([C@H](C)CO)C(=O)Cc2cc(N(C)C)ccc2O[C@H]1CN(C)C(=O)Nc1ccc(F)cc1	2	0	-1.2	i	3.0
21	CCCNC(=O)Nc1ccc2c(c1)OC[C@H](C)N(Cc1ccccc1)C[C@@H](C)[C@H](OC)CN(C)C2=O	-2	-36	-3.8	i	2.4
22	Cc1ccc(-c2cnc3c(c2)C(=O)N([C@@H](C)CO)C[C@H](C)[C@H](CN(C)C(=O)c2ccc(F)cc2)O3)cc1	-1	-6	-3.2	i	-5.7
23	COCC(=O)Nc1ccc2c(c1)[C@H]1C[C@H](CC(=O)N3CCOCC3)O[C@@H](CO)[C@H]1O2	6	12	1.2	i	3.0
24	COc1ccc(S(=O)(=O)N(C)C[C@@H]2OCCCC[C@@H](C)Oc3ccc(NS(=O)(=O)c4cccs4)cc3C(=O)N([C@@H](C)CO)C[C@@H]2C)cc1	2	2	-0.5	i	3.9
25	C[C@H](CO)N1C[C@H](C)[C@H](CN(C)C(=O)Nc2ccccc2)Oc2ncc(C3=CCCCC3)cc2C1=O	-1	6	0.6	i	1.4
26	O=c1[nH]c2ccccc2nc1-c1nnnn1Cc1ccccc1	-1	2	3.0	i	0.6
27	Oc1ccc(CCc2ccccn2)cc1	5	10	0.5	i	-2.0
28	COCCCNc1ccn2nc(-c3cc(OC)c(OC)c(OC)c3)cc2n1	-10	9	-0.3	i	-1.1
29	COc1ccc2c3c(n(C)c2c1)[C@@H](CO)N(C(=O)CN1CCOCC1)CC31CN(C(=O)CC2CC2)C1	0	12	-2.5	i	0.1
30	O=C(C(=O)N1CCN(C(=O)Cc2ccccc2)CC1)c1cccc(C(F)(F)F)c1	6	-10	8.2	i	0.3
31	Cc1ccc2nc(-c3ccc(F)cc3)c(Cc3cccc(F)c3)n2c1	-51	-73	-8.9	i	-0.2
32	CO[C@@H]1CN(C)C(=O)c2ccc(NC(C)=O)cc2OC[C@H](C)N(Cc2nccs2)C[C@@H]1C	-2	1	-1.0	i	-1.1
33	Cc1ccc(NC(=O)c2ncn(CCCN3CCN(c4ncccn4)CC3)n2)cc1C	-4	1	0.3	i	1.8
34	C[C@@H]1CN([C@@H](C)CO)C(=O)c2cc(NC(=O)Nc3ccc(F)cc3)ccc2O[C@@H](C)CCCCO[C@@H]1CN(C)C(=O)Cc1ccccc1	-2	-2	1.0	i	-1.0
35	COc1ccc(C(=O)CC(C(=O)O)c2ccc(OC)c(OC)c2)cc1OC (centres undefined)	0	0	-2.5	i	-4.2
36	CO[C@H]1CN(C)C(=O)c2cc(NC(C)=O)ccc2OC[C@@H](C)N(C(=O)CN2CCOCC2)C[C@@H]1C	2	-5	-2.5	i	-2.7
37	COc1cc(-c2cnc3c(NC=O)cc(-c4cccc(NC(C)=O)c4)cn23)cc(OC)c1OC	-2	1	8.5	i	1.8
38	C[C@@H]1CN([C@H](C)CO)S(=O)(=O)c2ccc(C#CC3CC3)cc2O[C@H]1CN(C)C(=O)c1cnccn1	-7	-24	1.2	i	-0.4
39	COc1cccc(S(=O)(=O)N[C@H]2CC[C@H](CCn3cc(-c4ccccn4)nn3)O[C@@H]2CO)c1	2	0	-1.9	i	-1.4
40	COC(=O)C1=C(C)N(C)C(=NCc2ccc(OC)cc2)NC1c1cccc(C(F)(F)F)c1 (centres undefined)	5	2	4.6	i	-0.1
41	COCCNC(=O)C[C@@H]1CC[C@H]2[C@H](COc3ccc(NC(=O)c4cc(C)on4)cc3C(=O)N2C)O1	2	7	0.3	i	0.5
42	COc1ccc(C#Cc2ccc3c(c2)[C@H]2[C@H](CCN2C(=O)C2CC2)[C@@H](CO)N3)cc1	2	15	-3.9	i	0.6
43	Cc1ccc(S(=O)(=O)Nc2ccc3c(c2)C(=O)N([C@H](C)CO)C[C@@H](C)[C@@H](CN(C)C(=O)Nc2ccccc2)O3)cc1	-1	1	1.0	i	-0.1
44	CCCNC(=O)N1C[C@@H](O)COC[C@@H]2O[C@H](CC(=O)N3CCN(C)CC3)CC[C@H]21	4	4	1.4	i	-1.5
45	CN(C)c1ccc2c(c1)[C@@H]1C[C@@H](CC(=O)NCCc3ccccc3)O[C@H](CO)[C@@H]1O2	1	-5	5.6	i	-4.5
46	Cc1ccc(Cn2c(C)c(C(=O)NCc3ccc4c(c3)OCO4)sc2=O)cc1	-7	-7	-13	i	-3.9
47	Nc1ccn([C@@H]2O[C@H](CNCc3cnc(N4CCOCC4)nc3)[C@@H](O)[C@H]2O)c(=O)n1	1	5	-2.3	i	-4.0
48	C[C@H]1CN([C@@H](C)CO)S(=O)(=O)c2ccc(C3=CCCC3)cc2O[C@H]1CN(C)C(=O)c1ccc(F)cc1	-12	-35	27	i	0.4
49	C[C@@H]1CN([C@H](C)CO)C(=O)c2cccc(NC(=O)c3ccc(-c4nccs4)cc3)c2O[C@H]1CN(C)Cc1ccc(Cl)c(Cl)c1	-1	3	-2.3	i	2.0
50	C[C@H](CO)N1C[C@H](C)[C@H](CN(C)C(=O)Nc2ccc(C(C)(C)C)cc2)OCc2cnnn2CCCC1=O	9&0	3&-4	5.1&-1.2	i	-0.7&1.0

Next part
nr	structure	rRNA inh HTS	rRNA inh HTS OD600	rRNA inh HTS RFP	FGF22 binding	AF4-AF9 inh
51	CCC(=O)N1CC2(C1)CN(Cc1ccccc1Cl)[C@H](CO)c1c2c2ccc(OC)cc2n1C	-2	-10	1.0	i	0.9
52	CCC(=O)N(C)C[C@@H]1Oc2cc(C#CC3(O)CCCC3)ccc2S(=O)(=O)N([C@@H](C)CO)C[C@H]1C	-1	1	-5.9	i	-0.8
53	COc1ccc(NC(=O)N(C)C[C@@H]2Oc3ccc(NC(=O)CCC(F)(F)F)cc3C(=O)N([C@@H](C)CO)C[C@@H]2C)cc1	-2	1	0.7	i	-3.8
54	CCCNC(=O)N1C[C@H](C)[C@@H](OC)CN(C)C(=O)c2ccc(NS(C)(=O)=O)cc2OC[C@@H]1C	0	4	-0.7	i	-2.0
55	CCCN1C[C@@H](C)[C@@H](OC)CN(C)C(=O)c2cc(NC(=O)c3ccc(F)cc3)ccc2OC[C@H]1C	0	-1	-1.2	i	0.6
56	CC12CC3OC3CC1CCC1C2CCC2(C)C1CCC21OCCO1 (centres undefined)	-7	-17	-0.2	i	-0.9
57	CCCNC(=O)N(C)C[C@H]1Oc2cc(C#CC3CC3)ccc2S(=O)(=O)N([C@@H](C)CO)C[C@H]1C	-3	-1	-0.9	i	-1.6
58	CCN1[C@@H]2Cn3c(ccc(-c4ccc(OC)cc4)c3=O)[C@H]1[C@@H](C(=O)NCC1CC1)[C@@H]2CO	-2	6	-1.5	i	-19
59	COCCNc1nc(Oc2cccc(F)c2)c2sccc2n1	-15	-26	-3.8	i	1.6
60	C[C@H](NC(=O)C[C@H]1C[C@@H]2c3cc(NS(=O)(=O)c4ccc(F)cc4)ccc3O[C@@H]2[C@H](CO)O1)c1ccccc1	-4	-12	1.9	i	-0.3
61	O=C(C[C@H]1C[C@H]2c3cc(NC(=O)C4CCOCC4)ccc3O[C@H]2[C@@H](CO)O1)NCCN1CCCCC1	6	7	1.6	i	-0.6
62	C[C@@H]1CN([C@@H](C)CO)C(=O)Cc2cc(NC(=O)CCC(F)(F)F)ccc2O[C@@H]1CN(C)S(=O)(=O)c1cccs1	-2	8	1.0	i	-2.2
63	O=C(Nc1ccc2c(c1)OCO2)c1cc(C2CCCN(C(=O)CCc3ccccc3)C2)on1 (centres undefined)	5	-3	3.7	i	-3.5
64	C[C@@H]1CN([C@H](C)CO)S(=O)(=O)c2ccc(-c3ccccc3)cc2O[C@H]1CN(C)Cc1cncnc1	-6	-23	1.7	i	8.3
65	CO[C@@H]1CN(C)C(=O)c2cc(NC(=O)C3CCC3)ccc2OC[C@H](C)N(Cc2ccncc2)C[C@@H]1C	-4	1	-1.3	i	-2.2
66	C[C@@H]1CN([C@@H](C)CO)C(=O)c2cc(NC(=O)c3ccncc3)ccc2O[C@@H](C)CCCCO[C@H]1CN(C)S(=O)(=O)c1ccccc1	-8	-6	2.4	i	-1.4
67	O=C1C(=NO)CCc2ccccc21	-2	-3	2.3	i	0.5
68	Cc1noc(C)c1NC(=O)Nc1ccc2c(c1)C(=O)N([C@@H](C)CO)C[C@@H](C)[C@H](CN(C)S(=O)(=O)c1c(C)noc1C)OCCCC[C@H](C)O2	1	1	-0.5	i	-7.0
69	CCC(=O)N1CCC2(CC1)CN(C(=O)Nc1ccccc1F)[C@@H](CO)c1c2c2ccc(OC)cc2n1C	-4	-19	2.7	i	-0.4
70	C[C@@H]1COc2cc(N3CCSCC3)ccc2S(=O)(=O)N1	8	12	0.0	i	-2.0

Copied from above: entries 53–56
nr	structure	rRNA inh HTS	rRNA inh HTS OD600	rRNA inh HTS RFP	FGF22 binding	AF4-AF9 inh
53	COc1ccc(NC(=O)N(C)C[C@@H]2Oc3ccc(NC(=O)CCC(F)(F)F)cc3C(=O)N([C@@H](C)CO)C[C@@H]2C)cc1	-2	1	0.7	i	-3.8
54	CCCNC(=O)N1C[C@H](C)[C@@H](OC)CN(C)C(=O)c2ccc(NS(C)(=O)=O)cc2OC[C@@H]1C	0	4	-0.7	i	-2.0
55	CCCN1C[C@@H](C)[C@@H](OC)CN(C)C(=O)c2cc(NC(=O)c3ccc(F)cc3)ccc2OC[C@H]1C	0	-1	-1.2	i	0.6
56	CC12CC3OC3CC1CCC1C2CCC2(C)C1CCC21OCCO1 (centres undefined)	-7	-17	-0.2	i	-0.9
